High-throughput results from PubChem.
Rce1 inh: yeast Ras-converting enzyme inhibition | AID 2563 | yeast membranes, quenched prenylated peptide cleavage fluorescence | calls only | 0.27% of 290,000 active;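 active = fall in fluorescence gain of 50% or more versus controls, with final raw signal at or below 3038400; inconclusive = same 50% fall but final raw signal above 3038400; inactive = fall in fluorescence gain under 50%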;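 note: plate controls were neutral control wells for no effect and wells lacking membranes for full effect; tested at 10 µM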
Target sequence (Q03530 whole entry, looked up): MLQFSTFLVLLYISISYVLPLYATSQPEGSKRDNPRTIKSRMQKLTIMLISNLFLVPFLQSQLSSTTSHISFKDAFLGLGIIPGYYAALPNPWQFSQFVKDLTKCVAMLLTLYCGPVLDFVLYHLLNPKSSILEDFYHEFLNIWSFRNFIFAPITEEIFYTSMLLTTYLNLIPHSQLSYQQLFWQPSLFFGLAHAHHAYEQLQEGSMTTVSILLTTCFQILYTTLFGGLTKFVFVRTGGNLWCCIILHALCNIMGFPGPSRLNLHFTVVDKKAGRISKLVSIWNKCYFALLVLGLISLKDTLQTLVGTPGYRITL
UUG fidelity: yeast start codon fidelity modulation | activity score, % at 18.7 µM | S. cerevisiae UUG-firefly luciferase reporter, luminescence/redox ratio | 0.13% of 350,000 active | AID 602363;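 active = replicate mean at a twofold rise or more, about +100% in these data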;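 note: firefly luciferase made from a UUG start codon reports start codon fidelity; reporter light over untreated wells divided by growth signal over untreated wells; some hits fall short of that in this replicate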
CSC inhib: blocks cancer stem cells; AID 2717; inhibition, % at 7.5 µM; cancer stem cell-like cells viability, luminescence; 1.1% of 300,000 active;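 active = mean at 75% or more and at least half the replicates too; inconclusive = mean and replicates disagree; tested in HMLE shEcad cells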;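 note: 0% = median of negative and 100% = median of positive control wells; the first replicate is given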
MT1-MMP act inh: blocks activation of human MT1-MMP. GFP/RFP ratio change, % at 20 µM. HT1080 RFP-PRO-GFP cells, GFP/RFP ratio fluorescence, overnight; percent of plate control window, DMSO zero. 0.061% of 360,000 active;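 active = GFP/RFP ratio change of at least 30% with cell ATP level not reduced by more than half and red fluorescence within 50% of control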; note: strong numbers were not always called active
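Assay system – RFP-PRO-GFP reporter HT1080 cells · Compound dosing – single dose of 20 µM compound, 1% DMSO final · Incubation – overnight compound exposure at 37 °C · Measure – GFP/RFP fluorescence ratio · Benchmarks – DMSO wells and RFP-L50D-GFP cells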
Env fusion inh: blocks HIV Env-driven cell-cell fusion; HeLa-JRFL Env/CEM21 cell fusion, luciferase; inhibition, % at 12.3 µM; 1.1% of 360,000 active;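 active = mean replicate inhibition score of at least 50 and every replicate individually at or above 50; inconclusive = only one of the two criteria met; inactive = mean below 50 and not all replicates reaching 50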;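 note: 0% = plate neutral controls and 100% = maraviroc near 300 nM; one replicate is shown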
PABP FP inh: PABP-poly(A) binding inhibition; P11940; PABP-poly(A) RNA binding, fluorescence polarization; inhibition, % at 35 µM; 1% of 290,000 active; AID 2014;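 active = 50% or more with normal probe brightness, or confirmed in later tests; inconclusive = above 50% with abnormal brightness, or retests that disagree; inactive = below 50% or failed in later tests; about a fifth of its hits are not listed in these tables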;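 note: calls also rest on retests at 20 µM and on dose response follow-up; controls were probe without protein and protein plus probe with vehicle; some compounds called inactive have numbers as strong as hits; many hits fall short of the cut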
eIF4H FP inh: inhibitors of RNA binding by human eIF4H; eIF4H fluorescence polarization binding assay; inhibition, % at 35 µM; 0.94% of 290,000 active; AID 2012;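 active = 50% or more with normal probe brightness, or confirmed in later tests; inconclusive = above 50% with abnormal brightness, or retests that disagree; inactive = below 50% or failed in later tests; about a fifth of its hits are not listed in these tables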;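 note: calls also rest on retests at 20 µM and on dose response follow-up; 0% = protein and probe with vehicle and 100% = probe without protein; strong numbers were not always called active; many hits fall short of the cut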
eIF4H FP inh retest: recorded beside eIF4H FP inh, whose call it bears; inhibition, %; compound at 20 µM; confirmation average;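 mean of two retest wells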
PABP FP inh retest: also measured in PABP FP inh; calls as there; inhibition, %; compound at 20 µM; confirmation repeats;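 mean of two retest wells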
MT1-MMP act inh RFP: second read-out of MT1-MMP act inh, no call of its own (marks repeat the call); RFP signal change, %; measured here: RFP expression control read;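 0 = vehicle wells; hits needed this value within 50% of zero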
* hit, by the source's call; i = inactive; ? = inconclusive; . = not tested or not shown; & = joins results of further samples.

SMILES | Rce1 inh | UUG fidelity | CSC inhib | MT1-MMP act inh | MT1-MMP act inh RFP | Env fusion inh | PABP FP inh | eIF4H FP inh | others
CCCCN1CCC(O)(c2ccccc2)C(C(=O)c2ccccc2)C1 (stereo not drawn) | i | -12.5 | 7.8 | 0.7 | 3.3 | . | -2.3 | 1.3
O=C(c1cc(-c2cccnc2)nc2ccc(Cl)cc12)N1CCC2(CC1)OCCO2 | i | -8.0 | -9.9 | 1.7 | 4.4 | . | -8.7 | -3.0
CN1CCN(/N=C/c2c(O)n(Cc3ccc(F)cc3)c(=O)[nH]c2=O)CC1 | i | . | 5.8 | -0.8 | 1.1 | -3.6 | 3.3 | -7.5
CC(C)n1cc(C(=O)N(CC(=O)NC2CCCC2)Cc2ccccc2)cn1 | i | -15.8 | -6.5 | -1.0 | 1.6 | -44.0 | -6.9 | -3.4
Cc1cnc[nH]1 | . | -14.4 | -10.4 | -5.2 | 6.9 | . | . | .
c1ccc2oc(N3CCNCC3)nc2c1 | i | 0.8 | 9.6 | 4.9 | -0.7 | . | -3.3 | -9.6
O=C(Cc1ccccc1)OCn1nnc2ccccc2c1=O | i | -0.6 | -9.4 | 3.8 | 0.6 | . | 6.0 | 1.5
Cn1c(O)c(C(=NCCc2c[nH]c3ccccc23)c2ccccc2)c(=O)n(C)c1=O | . | . | 5.6 | 2.9 | 2.8 | 11.4 | -2.5 | 0.6
CN1CCC(N(C)c2nc(-c3ccccc3)nc3ccccc23)CC1 | i | -11.0 | 29.1 | . | . | 0.9 | 13.9 | 2.6
CCC(C)n1c(O)c(/C=N/Nc2ccccc2)c(=O)[nH]c1=S (stereo not drawn) | i | . | 82.5* | 47.3 | 57.6 | -5.7 | 0.3 | -11.0
CC(C)c1ccc(N=Cc2c(O)n(C3CC3)c(=S)[nH]c2=O)cc1 | i | . | -5.5 | -0.5 | 3.9 | -36.5 | -9.5 | -3.3
CCOC(=O)c1c(/N=C/C2C(=O)NC(=S)NC2=O)sc2c1CCC2 | i | -18.5 | -7.9 | -113.4 | 4.5 | . | 7.0 | ?

Copied from the results shown (ten entries):
SMILES | Rce1 inh | UUG fidelity | CSC inhib | MT1-MMP act inh | MT1-MMP act inh RFP | Env fusion inh | PABP FP inh | eIF4H FP inh | others
CN1CCN(/N=C/c2c(O)n(Cc3ccc(F)cc3)c(=O)[nH]c2=O)CC1 | i | . | 5.8 | -0.8 | 1.1 | -3.6 | 3.3 | -7.5
CC(C)n1cc(C(=O)N(CC(=O)NC2CCCC2)Cc2ccccc2)cn1 | i | -15.8 | -6.5 | -1.0 | 1.6 | -44.0 | -6.9 | -3.4
Cc1cnc[nH]1 | . | -14.4 | -10.4 | -5.2 | 6.9 | . | . | .
c1ccc2oc(N3CCNCC3)nc2c1 | i | 0.8 | 9.6 | 4.9 | -0.7 | . | -3.3 | -9.6
O=C(Cc1ccccc1)OCn1nnc2ccccc2c1=O | i | -0.6 | -9.4 | 3.8 | 0.6 | . | 6.0 | 1.5
Cn1c(O)c(C(=NCCc2c[nH]c3ccccc23)c2ccccc2)c(=O)n(C)c1=O | . | . | 5.6 | 2.9 | 2.8 | 11.4 | -2.5 | 0.6
CN1CCC(N(C)c2nc(-c3ccccc3)nc3ccccc23)CC1 | i | -11.0 | 29.1 | . | . | 0.9 | 13.9 | 2.6
CCC(C)n1c(O)c(/C=N/Nc2ccccc2)c(=O)[nH]c1=S (stereo not drawn) | i | . | 82.5* | 47.3 | 57.6 | -5.7 | 0.3 | -11.0
CC(C)c1ccc(N=Cc2c(O)n(C3CC3)c(=S)[nH]c2=O)cc1 | i | . | -5.5 | -0.5 | 3.9 | -36.5 | -9.5 | -3.3
CCOC(=O)c1c(/N=C/C2C(=O)NC(=S)NC2=O)sc2c1CCC2 | i | -18.5 | -7.9 | -113.4 | 4.5 | . | 7.0 | ?

Next section.
SMILES | Rce1 inh | UUG fidelity | CSC inhib | MT1-MMP act inh | MT1-MMP act inh RFP | Env fusion inh | PABP FP inh | eIF4H FP inh | others
O=c1[nH]c(=O)n(Cc2ccc(F)cc2)c(O)c1C=NCCCn1ccnc1 | i | -11.9 | -11.0 | 1.0 | 0.3 | -9.4 | -3.9 | -1.7
Cc1ccc(N2C(=O)NC(=O)/C(=C\c3cc(C)n(-c4cc(C(=O)O)cc(C(=O)O)c4)c3C)C2=O)cc1 | i | 8.9 | 1.0 | 4.4 | 9.0 | -24.0 | 20.7 | 44.1
CC1(C)CC(CCNCc2ccc3c(c2)OCO3)(Cc2ccccc2)CCO1 (stereo not drawn) | i | . | -8.1 | -0.2 | -3.2 | -4.4 | 1.4 | -7.7
Cc1cc(C)[n+](CCCC[n+]2c(C)cc(C)cc2C)c(C)c1 | i | 6.8 | -3.1 | 4.8 | 5.8 | -14.8 | . | .
O=C(C1CC(=O)N(C2CCCCC2)C1)N1CCC2(CC1)OCCO2 (stereo not drawn) | i | -15.1 | -12.1 | -1.5 | -0.9 | . | 0.3 | 0.0
CCCCP(=O)(O)c1ccccc1 | i | -4.0 | 5.8 | 1.0 | 2.8 | 6.6 | 5.9 | 2.5
C=CCN1C(=O)NC(=O)/C(=C/c2cc3c4c(c2)CCCN4CCC3)C1=O | . | . | 1.7 | -11.5 | 4.2 | -3.6 | -3.6 | 76.6* | eIF4H FP inh retest=68.5*;PABP FP inh retest=26.9
C[C@@H]1CN([C@H](C)CO)C(=O)CCCn2nncc2CO[C@@H]1CN(C)C(=O)Oc1cccc2ccccc12 | . | -3.3&8.0 | . | 2.6 | -0.8 | -78.6 | . | .
CCC(c1nnnn1-c1ccc2c(c1)OCCO2)N1CCC2(CC1)C(=O)NCN2c1ccccc1 (stereo not drawn) | . | -3.1 | . | 1.1 | -2.0 | -20.3 | . | .
CCC(=NCc1cc(OC)cc(OC)c1)c1c(O)n(C)c(=O)n(C)c1=O | . | -9.6 | -4.7 | 4.5 | -19.9 | 24.7 | 3.6 | 0.5
O=c1c2ccccc2nc(CN2CCCCCC2)n1-c1ccc(F)cc1 | i | -3.7 | -10.0 | -0.2 | -0.2 | 70.7* | 1.5 | -3.9
CCOC(=O)c1c(C)n(Cc2ccccc2)c2ccc(OCC(O)CN3C(=O)CNC3=O)cc12 (stereo not drawn) | i | -17.2 | 24.8 | 2.8 | -5.0 | . | -6.3 | -2.1
C=CCn1c(O)c(C(CC)=NCCCO)c(=O)[nH]c1=O | i | -13.7 | 10.4 | -1.3 | 1.4 | . | 2.4 | -4.0
COc1c(C)cc(C(=O)C2CCCN(C3CCOCC3)C2)cc1C (stereo not drawn) | i | 8.2 | 35.9 | -12.3 | -0.7 | 8.4 | -4.4 | -2.0
C/C(CC(c1ccccc1)c1c(O)c2ccccc2oc1=O)=N\Nc1ccc([N+](=O)[O-])cc1[N+](=O)[O-] (stereo not drawn) | i | -35.7 | 29.7 | -0.8 | -4.8 | 3.5 | 13.2 | -4.7
O=C1N=c2ccccc2=C/C1=C\c1c(O)[nH]c(=S)[nH]c1=O | i | . | 4.2 | 0.4 | 3.2 | 8.2 | -12.9 | -1.5
CCCCCCn1c(=O)c(C(=O)Nc2cccc(C)n2)c(O)c2ccccc21 | i | -16.4 | -6.8 | -0.9 | 2.9 | . | -15.5 | -3.2
CC(=O)N1CCCSC1=Nc1ccccc1 | i | . | . | 5.3 | 5.2 | -5.1 | -1.1 | 0.3
CC(=O)N1CCC2(CC1)CC(=O)c1cc(OCC(=O)N3CCN(C)CC3)ccc1O2 | i | 9.3 | -7.9 | 1.2 | 3.1 | -19.1 | -5.8 | 1.8
COc1ccc(-n2c(/C=C3\C(=O)Nc4ccccc43)nc3ccccc3c2=O)cc1 | i | . | 1.0 | -14.6 | -10.3 | -5.0 | 2.1 | -4.0
Cc1cc(OCC(=O)NCC2CCC(C(=O)O)CC2)c2c3c(c(=O)oc2c1)CCC3 (stereo not drawn) | i | -12.4 | -11.0 | 5.2 | -4.0 | . | 1.2 | 6.0
CC(C)NC(C)C(=O)c1ccc2ccccc2c1 (stereo not drawn) | i | 1.1 | 2.9 | 3.0 | 9.2 | 5.0 | 8.6 | -2.6
CCOC(=O)c1c(/N=C/C2C(=O)NC(=S)NC2=O)sc(C)c1C | i | . | -4.6 | . | . | . | 8.5 | ?
O=C(CN1CCCCC1)c1ccc2c(c1)OCO2 | i | -8.1 | . | 1.4 | 4.0 | 4.6 | 5.8 | -3.3
COc1ccc(-c2[nH]ncc2CNC(C)Cc2cccc(C)n2)cc1F (stereo not drawn) | i | -15.7 | -12.1 | -3.1 | 0.1 | 17.1 | 1.9 | 7.3
CCCCn1c(=O)c(C(=O)Nc2ccccc2Cl)c(O)c2ccccc21 | i | -14.0 | -6.7 | -1.8 | -3.2 | -11.7 | -0.8 | -6.0
Fc1ccc(N2CCN(Cc3cc4c(cc3Br)OCO4)CC2)cc1 | i | -23.4 | 11.2 | -1.4 | -3.0 | 5.2 | -3.3 | 6.8
Nc1c(C(=O)NCCN2CCOCC2)c2nc3ccccc3nc2n1Cc1ccccc1 | i | -1.7 | -2.8 | -0.2 | -3.7 | 14.2 | 3.9 | 13.8
C[N+](C)(C)CCc1ccc(O)cc1 | i | -6.9 | -9.0 | -4.6 | 1.2 | . | 55.4* | ? | PABP FP inh retest=58.4*
C#C[C@@]1(O)CCC2C3CCC4=C/C(=N/OCC(=O)NC(C(=O)NC(CC(C)C)C(=O)O)C(C)C)CC[C@]4(C)C3CC[C@@]21C (stereo partly drawn) | i | -3.0 | -4.4 | -0.3 | 0.2 | 9.2 | 8.4 | -1.4
OCC#CC[N+]1(CC#Cc2ccccc2)CCOCC1 | . | . | 9.2 | -4.3 | -1.3 | -3.2 | 7.9 | -0.4

Only part of the results is shown (hit frequency here may not be typical).
